Tau fil binding: qHTS Assay for Tau Filament Binding. recombinant tau filaments, thioflavin S fluorescence, 15 h; filaments grown with octadecylsulfate alongside compound. Potency, µM (series often up to 57.1 µM), inactives show at the top dose activity change, negative = inhibition. Microtubule-associated protein tau (Homo sapiens), P10636. hit rate 2% among 71,000;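 also: potency is read from the fitted curve at half-maximal effect; % is scaled to controls: 0 for no effect and ±100 for the full control effect; actives lower thioflavin S fluorescence by blocking filaments or displacing dye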
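Quantitative HTS: thioflavine S signal from ODS-induced tau filaments, excited at 450 nm, emission 510 nm. Conditions: 1 uM tau, 30 uM ODS, 15 h at 37 C, pH 7.4.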
BRCT PPI red: qHTS Assay for Inhibitors of BRCT-Phosphoprotein Interaction (Red Fluorophore); BRCT-phosphopeptide binding, red fluorescence polarization; Potency, µM (highest dose often 76.9 µM), without a hit: top-dose activity change, negative = inhibition, actives largely listed as inhibitors; hit rate 0.03% among 75,000; AID 892, 2007; also: % is scaled to controls: 0 for no effect and ±100 for the full control effect
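Rhodamine-labelled pBACH1 10-mer (100 nM) bound to BRCT domain (100 nM) at pH 7.3; compounds incubated 12 min room temperature, polarization read. Free peptide defines full inhibition; unlabelled decapeptide titrated as control.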
Rhodamine autofl: qHTS Assay for Spectroscopic Profiling in Rhodamine Spectral Region | max dye-equivalent concentration, M | AID 594, 2007 | hit rate 0.05% among 59,000 | Rhodamine-region fluorescence, 547/598 nm, Tris buffer; stronger effect = higher value; in the data active = max dye-equivalent concentration above about 11 nM; inconclusive = between about 1.1 nM and that limit
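Compounds in 100 mM Tris buffer, pH 8.0, were incubated 15 min at room temperature, then read at 547 nm excitation and 598 nm emission. Fluorescence was normalized against a per-plate six-point rhodamine standard curve as dye-equivalent concentration.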
USP2a inhib: qHTS Assay for Inhibitors of Ubiquitin-specific Protease USP2a. Ubiquitin carboxyl-terminal hydrolase 2 (Homo sapiens), O75604. USP2a enzymatic assay, qHTS inhibition. Potency, µM (series often up to 38.3 µM), inactives show top-dose activity change, negative = inhibition, most hits filed as inhibitors. hit rate 0.1% among 60,000. AID 927, 2007;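 also: potency is read from the fitted curve at half-maximal effect; nearly all actives have a fitted effect of over 60% in size; plate controls were DMSO for no effect and NEM full inhibition control for full effect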
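20 nM USP2 core + cpd, 30 min RT; add 20 nM Ub-PLA2/20 uM NBD C6-HPC; read Ex460/Em535 at 0 h and 2.5 h. Normalized to NEM; qHTS curve fit/classification.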
DNA Pol III inh: qHTS Assay for Inhibitors of DNA Polymerase III Holoenzyme System; AID 603, 2007; hit rate 0.25% among 71,000; Potency, µM (doses to about 57.1 µM), inactives show top-dose activity change, negative = inhibition; reconstituted DNA polymerase III holoenzyme replication, biochemical; also: potency is read from the fitted curve at half-maximal effect; % is scaled to controls: 0 for no effect and ±100 for the full control effect
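Reconstituted *E. coli* holoenzyme (0.35 nM Pol III, 1 nM beta, 154 nM SSB, 2 nM primase) was preincubated with compound for 15 min at RT. Synthesis on 1.4 nM ssM13Gori ran 35 min, then was stopped with PicoGreen/EDTA and read as dsDNA fluorescence.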
ALOX15 inhib: qHTS Assay for Inhibitors of 15-hLO (15-human lipoxygenase). Polyunsaturated fatty acid lipoxygenase ALOX15 (Homo sapiens), P16050. Potency, µM (doses to about 57.1 µM), for the others: top-dose activity change, negative = inhibition, most hits filed as inhibitors. purified 15hLO-1, xylenol orange hydroperoxide absorbance. hit rate 1.4% among 74,000; also: potency is read from the fitted curve at half-maximal effect; % is scaled to controls: 0 for no effect and ±100 for the full control effect; nearly all actives have a fitted effect of over 55% in size
Target sequence (P16050 whole entry, looked up): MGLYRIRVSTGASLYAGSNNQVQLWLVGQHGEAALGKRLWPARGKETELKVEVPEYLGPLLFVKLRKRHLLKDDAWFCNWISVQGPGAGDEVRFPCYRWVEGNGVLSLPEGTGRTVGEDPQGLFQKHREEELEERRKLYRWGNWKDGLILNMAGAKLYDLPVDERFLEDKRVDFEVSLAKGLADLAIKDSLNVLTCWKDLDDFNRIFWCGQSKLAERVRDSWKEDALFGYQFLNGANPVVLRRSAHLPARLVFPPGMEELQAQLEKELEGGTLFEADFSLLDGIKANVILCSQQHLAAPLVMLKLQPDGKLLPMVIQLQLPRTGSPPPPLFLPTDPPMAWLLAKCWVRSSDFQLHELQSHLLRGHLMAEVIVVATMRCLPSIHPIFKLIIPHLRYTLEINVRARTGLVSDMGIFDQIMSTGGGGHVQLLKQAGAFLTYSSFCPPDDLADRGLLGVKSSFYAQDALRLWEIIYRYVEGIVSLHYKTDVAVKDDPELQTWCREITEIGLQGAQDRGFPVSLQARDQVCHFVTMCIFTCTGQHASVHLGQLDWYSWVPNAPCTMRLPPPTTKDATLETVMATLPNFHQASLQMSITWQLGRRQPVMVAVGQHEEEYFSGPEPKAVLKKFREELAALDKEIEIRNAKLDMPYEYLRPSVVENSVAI
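Hydroperoxide formed from arachidonic acid (50 uM) by purified human 15hLO-1 (40 nM) oxidizes ferrous iron, and the ferric-xylenol orange complex is read at 573 versus 405 nm. Compounds were preincubated 15 min; reaction ran 6 min at room temperature.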
HADH2 inhib: qHTS Assay for Inhibitors of HADH2 (Hydroxyacyl-Coenzyme A Dehydrogenase, Type II). Potency, µM (series often up to 57.1 µM), inactives show top-dose activity change, negative = inhibition, actives largely listed as inhibitors. hit rate 3.4% among 73,000. recombinant HADH2, NADH fluorescence, beta-hydroxybutyryl-CoA. 3-hydroxyacyl-CoA dehydrogenase type-2 (Homo sapiens), Q99714. AID 886, 2007; also: potency is read from the fitted curve at half-maximal effect; % is scaled to controls: 0 for no effect and ±100 for the full control effect; nearly all actives have a fitted effect of over 60% in size; many of its hits are not listed in these tables
Target sequence (Q99714 whole entry, looked up, one chain of several): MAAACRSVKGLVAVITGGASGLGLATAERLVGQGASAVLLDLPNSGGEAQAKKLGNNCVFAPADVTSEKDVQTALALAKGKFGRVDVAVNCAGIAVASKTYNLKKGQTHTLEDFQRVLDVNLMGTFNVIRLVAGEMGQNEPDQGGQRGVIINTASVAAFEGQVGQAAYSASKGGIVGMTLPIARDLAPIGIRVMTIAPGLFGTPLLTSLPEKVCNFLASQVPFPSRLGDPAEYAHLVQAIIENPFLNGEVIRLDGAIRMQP
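Read-out: 360 nm excitation, 450 nm emission, kinetic over 4 min. Conditions: His-tagged human HADH2 20 nM, pH 9.0 Tris with Tween-20, 1 mM NAD+, 90 uM beta-hydroxybutyryl-CoA.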
BRCT inh green: qHTS Assay for Inhibitors of BRCT-Phosphoprotein Interaction (Green Fluorophore); Potency, µM (highest dose often 76.9 µM), without a hit: top-dose activity change, negative = inhibition, usual class: inhibitors; Breast cancer type 1 susceptibility protein (Homo sapiens), P38398; hit rate 0.05% among 75,000; BRCA1 BRCT-phosphopeptide binding, green fluorescence polarization;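 also: potency is read from the fitted curve at half-maximal effect; plate controls were peptide without protein for full effect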
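Fluorescence polarization: His-tagged BRCT (~35 kDa BRCA1 C-terminus, 250 nM) bound to 100 nM fluorescein-labeled phosphorylated 10-aa BACH1 peptide, pH 7.3 phosphate buffer with DTT and Tween 20. Compounds incubated 12 min at room temperature; inhibition read as lowered polarization.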
* hit, by the source's call; i = inactive; ? = inconclusive; / = not tested or not shown; [ ] = remark or other dose. Unless noted, calls follow the shape of the dose curve; as a rule, active = well fitted curve in the direction sought with a large enough effect; inconclusive = small, poorly fitted or top-dose-only effect, or another doubt; inactive = no such curve, though single readings can be large; an effect the other way counts as inactive or inconclusive. A portion of the library; rates above refer to the full screens.

#1 Nc1ccc2ccccc2c1
#2 Nc1c(Cl)cc([N+](=O)[O-])cc1Cl
#3 O=C(c1ccc2nc3ccc(Cl)cc3c(=O)n2c1)N1CCC2(CC1)OCCO2
#4 CC(C)(C)c1ccccc1O
#5 CC(C)OCCCNC(=O)c1c(N)n(CC2CCCO2)c2nc3ccccc3nc12 (stereo not given)
#6 CC1=C2C3OC(=O)[C@H](C)[C@H]3CC[C@@]2(C)C=CC1=O (stereo not given in full)

| assay / compound | 1 | 2 | 3 | 4 | 5 | 6 |
| --- | --- | --- | --- | --- | --- | --- |
| Tau fil binding | 2.5% | -8.3% | -15.3% | -6.6% | 73.6% | / |
| BRCT PPI red | 0.2% | 0.5% | -1.2% | -0.8% | -3.5% | 0.9% |
| Rhodamine autofl | / | / | i | / | i | / |
| USP2a inhib | / | / | 10.2% | / | 38.9%[activator] | / |
| DNA Pol III inh | -10.4% | -7.0% | 1.5% | -4.1% | -6.1% | / |
| ALOX15 inhib | -2.2% | -6.4% | 4.6% | -3.7% | -17.6% | 2.4%[25.6 µM] |
| HADH2 inhib | 11.7% | -14.4% | ? | -10.9% | 31.6µM* | / |
| BRCT inh green | 0.7% | -1.4% | -1.0% | -1.1% | -0.9% | -0.1% |

Single records (already shown).
Shown for Nc1c(Cl)cc([N+](=O)[O-])cc1Cl → Tau fil binding = -8.3%; BRCT PPI red = 0.5%; Rhodamine autofl = /; USP2a inhib = /; DNA Pol III inh = -7.0%; ALOX15 inhib = -6.4%; HADH2 inhib = -14.4%; BRCT inh green = -1.4%
Shown for CC(C)OCCCNC(=O)c1c(N)n(CC2CCCO2)c2nc3ccccc3nc12 (stereo not given) → Tau fil binding = 73.6%; BRCT PPI red = -3.5%; Rhodamine autofl = i; USP2a inhib = 38.9%[activator]; DNA Pol III inh = -6.1%; ALOX15 inhib = -17.6%; HADH2 inhib = 31.6µM*; BRCT inh green = -0.9%

Continuation.
#7 Nc1c(C(=O)NCCc2ccccc2)c2nc3ccccc3nc2n1CCN1CCOCC1
#8 ClC(Cl)(Cl)C(Cl)(Cl)Cl
#9 CCC[C@@](C)(COC(N)=O)COC(=O)NC(C)C
#10 CC(CCC(=O)O)C1CCC2C3CC[C@H]4CC(O)CC[C@@]4(C)C3CC[C@@]12C (stereo not given in full)
#11 Clc1ccc(C(c2ccccc2Cl)C(Cl)(Cl)Cl)cc1 (stereo not given)
#12 Cc1ccc([N+](=O)[O-])cc1

| assay / compound | 7 | 8 | 9 | 10 | 11 | 12 |
| --- | --- | --- | --- | --- | --- | --- |
| Tau fil binding | 146.0% | -1.4% | 3.0%[25.6 µM] | / | 1.4% | -3.6% |
| BRCT PPI red | -1.3% | 0.6% | -0.6%[34.4 µM] | 15.0% | -0.1% | -0.8% |
| Rhodamine autofl | i | / | i | / | / | / |
| USP2a inhib | 39.1%[activator] | / | -4.2%[17.1 µM] | 6.6% | / | / |
| DNA Pol III inh | 1.9% | 3.3% | -0.8%[25.6 µM] | / | -1.4% | -5.2% |
| ALOX15 inhib | ? | -0.8% | 4.1%[25.6 µM] | -6.7% | -8.9% | -5.5% |
| HADH2 inhib | -60.4% | 5.0% | 5.9%[25.6 µM] | / | -4.3% | ? |
| BRCT inh green | -1.0% | 0.4% | -0.5%[34.4 µM] | 1.3%[3.08 µM] | -1.2% | -0.1% |

Structures above containing a carbonyl joined to an NH by a bond outside any ring:
#5 CC(C)OCCCNC(=O)c1c(N)n(CC2CCCO2)c2nc3ccccc3nc12 (stereo not given)
#7 Nc1c(C(=O)NCCc2ccccc2)c2nc3ccccc3nc2n1CCN1CCOCC1
#9 CCC[C@@](C)(COC(N)=O)COC(=O)NC(C)C

| assay / compound | 5 | 7 | 9 |
| --- | --- | --- | --- |
| Tau fil binding | 73.6% | 146.0% | 3.0%[25.6 µM] |
| BRCT PPI red | -3.5% | -1.3% | -0.6%[34.4 µM] |
| Rhodamine autofl | i | i | i |
| USP2a inhib | 38.9%[activator] | 39.1%[activator] | -4.2%[17.1 µM] |
| DNA Pol III inh | -6.1% | 1.9% | -0.8%[25.6 µM] |
| ALOX15 inhib | -17.6% | ? | 4.1%[25.6 µM] |
| HADH2 inhib | 31.6µM* | -60.4% | 5.9%[25.6 µM] |
| BRCT inh green | -0.9% | -1.0% | -0.5%[34.4 µM] |

Continuation.
#13 C[N+](C)(C)CC(=O)O
#14 CO[C@H]1[C@H](O)[C@H](O[C@@H]2[C@H](Oc3cccc4c(O)c5c(=O)oc6ccc(C)c7c(=O)oc(c34)c5c67)O[C@@H](C)[C@H](O)[C@H]2O)O[C@@H](C)[C@@H]1O
#15 CCCCCn1c(N)c(C(=O)NCCN2CCOCC2)c2nc3ccccc3nc21
#16 CCCCn1c(N)c(C(=O)OCC2CCCO2)c2nc3ccccc3nc21 (stereo not given)
#17 Oc1cc(Cl)cc(Cl)c1
#18 c1ccc(SSc2ccccc2)cc1

| assay / compound | 13 | 14 | 15 | 16 | 17 | 18 |
| --- | --- | --- | --- | --- | --- | --- |
| Tau fil binding | -11.5% | 28.0%[11.4 µM] | 54.8% | ? | 3.5% | / |
| BRCT PPI red | -2.5% | -2.5%[15.4 µM] | -0.7% | -0.2% | 0.3% | -1.3% |
| Rhodamine autofl | i | i | i | i | / | / |
| USP2a inhib | 0.7% | / | 27.8% | 36.4%[activator] | / | / |
| DNA Pol III inh | -0.7% | 3.16µM* | -0.7% | -7.3% | 6.2% | / |
| ALOX15 inhib | 16.2% | 6.5%[11.4 µM] | -20.1% | -16.4% | -0.2% | -3.2% |
| HADH2 inhib | 13.2% | -10.0%[11.4 µM] | ? | 14.3% | -21.9% | ? |
| BRCT inh green | -1.0% | 0.2%[15.4 µM] | -1.0% | 4.1% | -2.1% | -1.5% |

#19 CN1CCc2cc3c(cc2[C@@H]1O)OCO3
#20 CCCCNC(=O)c1c(N)n(CCCOC)c2nc3ccccc3nc12
#21 C=CCCC#N
#22 COC(=O)c1c(N)n(Cc2ccc(OC)cc2)c2nc3ccccc3nc12
#23 ClC1=C(Cl)C2(Cl)C3C(Cl)C(Cl)CC3C1(Cl)C2(Cl)Cl (stereo not given)
#24 Nc1c(C(=O)OCC2CCCO2)c2nc3ccccc3nc2n1Cc1cccs1 (stereo not given)
#25 CCCOC(=O)c1ccccc1C(=O)OCCC
#26 COCCOC(=O)c1c(N)n(Cc2ccc(OC)cc2)c2nc3ccccc3nc12

| assay / compound | 19 | 20 | 21 | 22 | 23 | 24 | 25 | 26 |
| --- | --- | --- | --- | --- | --- | --- | --- | --- |
| Tau fil binding | 10.5%[25.6 µM] | / | 10.2% | ? | -6.7% | ? | 0.1% | 2.8% |
| BRCT PPI red | -0.2%[34.4 µM] | -2.0% | 0.3% | 0.2% | 0.5% | 1.0% | 0.1% | -1.4% |
| Rhodamine autofl | i | / | / | i | / | i | / | i |
| USP2a inhib | -5.3%[17.1 µM] | / | / | 27.5% | / | 34.2%[activator] | / | 74.1%[activator] |
| DNA Pol III inh | 3.2%[25.6 µM] | / | 5.4% | -4.2% | 5.5% | -2.8% | -1.8% | 3.9% |
| ALOX15 inhib | 1.8%[25.6 µM] | -15.4% | 0.1% | -18.6% | -6.1% | -17.3% | -7.9% | -8.0% |
| HADH2 inhib | 12.6µM* | 12.6µM* | 1.4% | 0.794µM* | -4.3% | 12.6µM* | 5.7% | ? |
| BRCT inh green | -1.8%[34.4 µM] | -1.8% | -0.7% | 0.0% | 0.6% | 2.8% | -2.8% | 0.2% |

Looked up by compound from the list above (2):
#26 COCCOC(=O)c1c(N)n(Cc2ccc(OC)cc2)c2nc3ccccc3nc12
#24 Nc1c(C(=O)OCC2CCCO2)c2nc3ccccc3nc2n1Cc1cccs1 (stereo not given)

| assay / compound | 26 | 24 |
| --- | --- | --- |
| Tau fil binding | 2.8% | ? |
| BRCT PPI red | -1.4% | 1.0% |
| Rhodamine autofl | i | i |
| USP2a inhib | 74.1%[activator] | 34.2%[activator] |
| DNA Pol III inh | 3.9% | -2.8% |
| ALOX15 inhib | -8.0% | -17.3% |
| HADH2 inhib | ? | 12.6µM* |
| BRCT inh green | 0.2% | 2.8% |

Screening results: PubChem, National Center for Advancing Translational Sciences (NCATS)
